nsP2pro inh: Primary qHTS for inhibitors of NSP2Pro chikungunya virus (CHIKV). Polyprotein P1234 (Chikungunya virus (strain S27-African prototype)), Q8JUX6. FRET peptide cleavage, nsP2pro, fluorescence 1 h. Potency, µM (titrated, usually from 24.9 µM), for the others: at the top dose activity change, negative = inhibition, usual class: inhibitors. 31,000 tested, 1.1% active; active means well fitted inhibition curve with a large enough effect; inconclusive means small, poorly fitted or top-dose-only effect; inactive means no such curve, though single readings can be large or run the other way; further: nearly all actives have a fitted effect of over 60% in size; a reference inhibitor and vehicle were the controls
* hit, by the source's call; i = inactive; ? = inconclusive; & = joins results of further samples; [ ] = remark or other dose. On the % scale 0 is the no-effect control and ±100 the full control effect; potency means the concentration at half of the fitted maximal effect. The list is partial (hit frequency here may not be typical).

The opening 2 entries, ahead of the listing:
SMILES	nsP2pro inh
CC(=O)Nc1ccccc1NC(=O)c1cnn2c(C)cc(C)nc12	1%
O=C(Nc1nnc(-c2ccncc2)s1)Nc1ccc(Cl)c2ccccc12	-3%

Main list (from the top)
SMILES	nsP2pro inh
CC(=O)Nc1ccccc1NC(=O)c1cnn2c(C)cc(C)nc12	1%
O=C(Nc1nnc(-c2ccncc2)s1)Nc1ccc(Cl)c2ccccc12	-3%
COc1ccc(-c2cnc3n[nH]c(-c4ccccc4C)c3n2)cn1	i
CCOC(=O)c1c(-c2ccc(C)cc2)csc1NC(=O)c1cc(=O)c2cc(C)cc(C)c2o1	-12%
COC(=O)c1ccc(NC(=O)c2c(NCc3ccc(C)o3)sc3c2CCCC3)cc1	?
CC(C)c1noc([C@@H]2C[C@H](NS(=O)(=O)Cc3ccccc3)CN2C)n1	-3%[39.2 µM]
Cc1cc(NC(=O)Nc2nnc(-c3cccnc3)s2)ccc1F	-16%
N#Cc1cccc(NS(=O)(=O)c2ccc3c(c2)CCC(=O)N3)c1	-7%
O=C(CCc1cc(=O)[nH]o1)N[C@H](C1CCNCC1)C1CC(O)C1 (stereo partly specified)	10%
O=C(CCc1ccc2c(c1)CN(C(=O)C1CC1)CCO2)NC1CCS(=O)(=O)C1 (stereo unspecified)	4%
CCN1CCC[C@H]1CNC(=O)c1cc(S(N)(=O)=O)ccc1OC	5%&-5%
O=S1(=O)c2ccccc2N(Cc2ccccc2F)c2ccccc21	-13%
Cc1csc2nc(COc3ccc(NC(=O)C(C)C)cc3)cc(=O)n12	-15%
O=C(CSc1oc(-c2ccc(F)cc2)nc1S(=O)(=O)c1ccccc1)c1ccc(Cl)cc1	-26%
Cc1nc(NS(=O)(=O)c2ccc(N)cc2)nc(C)c1Br	-9%
Cn1c2ccsc2c2ncn(Cc3ccccc3F)c(=O)c21	i
O=C1Cc2cc(S(=O)(=O)N3CCN(c4ccc(Cl)cc4)CC3)ccc2N1	1%[39.2 µM]
CCC(Nc1ncnc2ccc(-c3c(C)noc3C)cc12)c1ccccc1 (stereo unspecified)	-5%
CCn1cc(C(=O)O)c(=O)c2cnc(N3CCCC3)nc21	-5%[5.1 µM]
COc1ccc(CNC(=O)c2cc3cc(S(=O)(=O)N4CCCCC4)ccc3n2C)c(OC)c1	-13%
O=C1c2ccccc2C(=O)N1c1ccncc1	3%
Cc1ccccc1CN1Cc2nc(-c3ccccc3)ccc2OCC1=O	1%[39.2 µM]
O=C(Cn1ncc2c3ccccc3n(Cc3ccccc3)c2c1=O)NCCCN1CCCCC1	1%
C=C1C(=O)OC2C3=C(C)C(=O)CC3C(C)CC(O)C12 (stereo unspecified)	?
Cc1cccc(-c2noc(CN(C(=O)COc3ccc(C(C)C)cc3)C(C)C)n2)c1	-15%

Six entries drawn at random from the list so far:
SMILES	nsP2pro inh
O=C(Nc1nnc(-c2ccncc2)s1)Nc1ccc(Cl)c2ccccc12	-3%
N#Cc1cccc(NS(=O)(=O)c2ccc3c(c2)CCC(=O)N3)c1	-7%
COC(=O)c1ccc(NC(=O)c2c(NCc3ccc(C)o3)sc3c2CCCC3)cc1	?
C=C1C(=O)OC2C3=C(C)C(=O)CC3C(C)CC(O)C12 (stereo unspecified)	?
CCOC(=O)c1c(-c2ccc(C)cc2)csc1NC(=O)c1cc(=O)c2cc(C)cc(C)c2o1	-12%
O=C(CCc1cc(=O)[nH]o1)N[C@H](C1CCNCC1)C1CC(O)C1 (stereo partly specified)	10%

(listing goes on)
SMILES	nsP2pro inh
O=S1(=O)N=C(Oc2ccccc2-c2ccccc2)c2ccccc21	?
CCOC(=O)c1ccc(-n2cnc3cc(C(=O)N4CCCCC4)ccc32)cc1	i
C#C[C@]1(O)CC[C@H]2[C@@H]3CCC4=CC(=O)CC[C@@H]4[C@H]3CC[C@@]21C	2%
Cc1ccc(C#N)c(NCc2cccnc2Oc2cccc(C(F)(F)F)c2)n1	i
CS(=O)(=O)c1ccc([C@@H](O)[C@@H](COC(=O)CN)NC(=O)C(Cl)Cl)cc1	16%
COc1cccc(-c2ccc(NC(=O)C3=C(C(=O)O)CCC3)c(F)c2)c1	0%
Cc1nc(N2CCN(C(=O)c3ccco3)CC2)c2c3c(sc2n1)CCCC3	-5%
O=C(O)c1cccc(C2CCCN(C(=O)c3c(F)cccc3Cl)C2)c1 (stereo unspecified)	4%
COc1ccc(C2Nc3ccccc3C(=O)N2Cc2cccs2)cc1COc1c(C)cccc1C (stereo unspecified)	-2%
C=CCNc1oc(-c2ccc(F)cc2)nc1C#N	-9%
COc1ccc(C2(C(=O)N3CCC[C@H]3c3nc(-c4ccccc4Cl)no3)CC2)cc1	i
N#Cc1c(N)n(-c2cccc(Cl)c2)c2nc3ccccc3nc12	?
CCn1ccc(C(=O)N2CCCC(CO)CCNC(=O)CC2)n1 (stereo unspecified)	-4%
CC(C)(C)C(=O)N1CC[C@@H](CC(=O)O)[C@@H](CCN2CCC[C@H]2C(N)=O)C1	-20%[39.2 µM]
Cc1cccc(C(=O)N2CCc3cc(CNC(=O)c4cc5ccccc5[nH]4)ccc32)c1	-27%
COc1ccccc1OCCCn1c(-c2ccc(Cl)cc2)nc2ccccc2c1=O	-11%
CCC(CC)(NC(=O)C(C)C)C(=O)N[C@@H](CCCN=C(N)N)C(=O)NC1(C(=O)NC(c2ccc(F)cc2)c2ccc(F)cc2)CCCC1	11%
O=C(Nc1cccc(-c2nn3c(=O)cc(N4CCNCC4)nc3s2)c1)c1ccncc1	i
Cc1cc(Cn2cc3c4c(cccc42)[C@H](CC(C)C)N[C@H](C(=O)NC2CCCC2)C3)no1	-14%[39.2 µM]
O=C(O)CCCCCCNC1c2ccccc2CCc2ccccc21	7%
Clc1ccc(C(Cn2ccnc2)OCc2ccsc2Cl)c(Cl)c1 (stereo unspecified)	98%[activator]
O=C(COC(=O)CNC(=O)c1ccccc1)Nc1ccccc1Cl	2%
COc1ccc(CNC(=O)C[C@@H]2C[C@H]3O[C@H](CNC4CCNCC4)[C@@H](O)[C@H]3O2)cc1	-4%[39.2 µM]
COC(=O)c1ccc2c(c1)nc1n2[C@@H](CNC(=O)CC(C)(C)C)COC1	i
CN(Cc1cn(C)c2ccccc12)C1CCc2nn(CC3CC3)c(=O)n2CC1 (stereo unspecified)	?
SMILES	nsP2pro inh
Brc1cnc2nc(SCc3ccccn3)[nH]c2c1	-8%
CCOc1ccccc1C(=O)N1CCC(c2nc3ccccc3o2)CC1	?
OC[C@H]1O[C@@H](Oc2ccc3c(c2)OC[C@H]2c4cc5c(cc4O[C@@H]32)OCO5)[C@H](O)[C@@H](O)[C@@H]1O	2%[10 µM]
COC(=O)c1c(NC(=O)CCCOc2cccc(C)c2)sc2c1CCC(C)C2 (stereo unspecified)	-20%
CC(C)c1cc(C(=O)N2CC[C@H](NC(=O)C3CC3)C2)n[nH]1	2%
CCOc1ccc(CCNC(=O)c2ccc(Oc3ccccc3)cc2)cc1OCC	0%
CC1(C)O[C@]23C[C@H]1C[C@H](OC(=O)c1ccoc1)[C@]2(C)[C@@H](OC(=O)c1ccoc1)CCC3(C)O (stereo partly specified)	2%[10 µM]
C=CCc1ccccc1OCCN(C)Cc1cc2ccc(F)cc2[nH]c1=O	-21%
O=C(Nc1ccc(-c2nc3ccccc3[nH]2)cc1)c1ccc2n[nH]nc2c1	i
O=C(C1CCN(c2cnn(Cc3ccccc3)c(=O)c2)C1)N1CCCC1 (stereo unspecified)	-5%
O=C(Cc1ccccn1)NCCNC(=O)c1cccc(-c2ccc(C(F)(F)F)cc2)c1	?
CCCCCCCCCCCCCCCCCC(=O)OCC(O)CO (stereo unspecified)	12%
O=C(NCCN1CCN(c2ccccc2)CC1)Nc1ccccc1Br	-8%
O=C1Nc2ccccc2C12CCN(Cc1cccnc1)C2 (stereo unspecified)	-16%[39.2 µM]
O=C(CCCCCCC(=O)N/N=C/c1ccc(N(c2ccccc2)c2ccccc2)cc1)NO	-2%
CCc1cccc(C)c1NC(=O)CSc1n[nH]c(-c2ccccc2)n1	11%
CC(C)Cc1nc(CN2CCn3nc(C(O)c4ccnn4C)cc3C2)no1 (stereo unspecified)	3%
C=CCNc1oc(-c2cccs2)nc1C#N	-2%
Cc1nnsc1C(=O)Nc1ccc(-n2nc(C(F)(F)F)cc2C(F)(F)F)cc1	-19%
O=C(c1ccc2c(c1)N(Cc1ccccc1)C(=O)c1ccccc1S2=O)N1CCC(Cc2ccccc2)CC1 (stereo unspecified)	-14%
COc1cc(Br)c(S(=O)(=O)Nc2ccc(Cl)c(O[C@@H]3CCN(C)C3)c2)cc1OC	1%
COc1cc(O)c(C(CC(=O)N2CCCC(C#N)C2)c2ccc3c(c2)OCO3)c(OC)c1 (stereo unspecified)	-4%[39.2 µM]
Cc1cc(C)nc(NS(=O)(=O)c2ccc(NC(=O)c3nc(SC(C)C)ncc3Cl)cc2)n1	-4%
Cc1ccc(N2CCN(S(=O)(=O)N3CCCCC3)CC2)c(C)c1	26%
C=CCc1cccc(/C=N/NC(=O)CN2CCN(Cc3ccccc3)CC2)c1O	11%

At a glance, two of the compounds above:
SMILES	nsP2pro inh
Cc1ccc(N2CCN(S(=O)(=O)N3CCCCC3)CC2)c(C)c1	26%
C=CCc1cccc(/C=N/NC(=O)CN2CCN(Cc3ccccc3)CC2)c1O	11%

Next entries.
SMILES	nsP2pro inh
COC(=O)c1scc(-c2ccc(C)cc2)c1S(=O)(=O)N1CCN(c2ccc(OC)cc2)CC1	-21%
Cn1c2cc([N+](=O)[O-])sc2c2cnn(Cc3ccccc3F)c(=O)c21	-1%
CN(CCC1CCOCC1)C(=O)c1ccc(OC2CCN(C(=O)C3CC3)CC2)cc1	i
COc1ccccc1NC(=O)Cn1nnc(C(=O)NCc2ccc3c(c2)OCO3)c1N	-19%
O=C(c1ccc2c(c1)N(Cc1ccccc1F)C(=O)c1ccccc1S2(=O)=O)N1CCc2ccccc21	-17%
c1nc(NCc2ccc3c(c2)OCO3)c2cc(-c3ccoc3)ccc2n1	4%
Cc1cc(C)cc(N(CC(=O)NCc2ccccc2Cl)S(=O)(=O)c2c(C)[nH]c(=O)[nH]c2=O)c1	-20%
O=C(OCCN(CCO)CCO)c1ccccc1O	-20%
CC(C)(C)c1cc(Br)cc([C@H](CC(=O)O)NC(=O)CNC(=O)c2cc(O)cc(NC3=NCC(O)CN3)c2)c1 (stereo partly specified)	-11%
CC(=O)Nc1c(C)nn(-c2ccccc2)c1N1CCC(C(=O)Nc2cc(Cl)ccc2C)CC1	1%
COc1ccc(S(=O)(=O)NCC(c2ccco2)N2CCN(c3ccccc3F)CC2)cc1C (stereo unspecified)	-16%
Fc1cc(Nc2nc(-c3ccncc3)nc3ccccc23)ccc1-c1ccnc(C(F)(F)F)c1	-2%
COC1=CC(=O)O[C@@H](CCc2ccccc2)C1	-2%
COc1ccc(CCNS(=O)(=O)c2cc(-c3cc(C)no3)ccc2C)cc1OC	-12%
COc1cc(C(O)C(CO)Oc2ccc(CCCO[C@@H]3O[C@@H](C)[C@H](O)[C@@H](O)[C@H]3O)cc2OC)ccc1O (stereo partly specified)	?
CCCCCCCCCCCCCCCC(=O)OC/C=C(C)/C=C/C=C(C)/C=C/C1=C(C)CCCC1(C)C	-29%
COc1ccc(CNC(=O)C[C@@H]2O[C@H](CNC(=O)NC(C)C)[C@@H](O)[C@H]2O)cc1	i
O=C(N1CCc2cc([S+](=O)([O-])N3CCN([S+](=O)([O-])c4c(F)cccc4F)CC3)ccc2C1)C(F)(F)F	-13%
COc1ccc(-n2nc3ccc(NC(=O)COc4ccc(C)c(C)c4)cc3n2)cc1	?
CCOC(=O)C1CCCN(c2nc3c(S(=O)(=O)c4ccc(CC)cc4)nnn3c3ccc(Cl)cc23)C1 (stereo unspecified)	-17%
Cc1cccc(N(C)C(=S)Oc2ccc3ccccc3c2)c1	9%
COc1cc(Nc2nc(SCC(=O)c3ccc(Cl)c(Cl)c3)nc3ccccc23)cc(OC)c1	-22%
C=CCNC(=O)c1cnn2cc(C)ccc12	2%[39.2 µM]
CCOC(=O)c1c(C)[nH]c(CCC(=O)NCCCN2CCN(c3cc(Cl)ccc3C)CC2)c1C	2%
CCOc1ccc(/C=C(\C#N)c2nc(-c3cc4ccccc4oc3=O)cs2)c(OCC)c1	0%
SMILES	nsP2pro inh
CCN(CCCNC(=O)CSc1cc(=O)n(C)c2cc(Cl)ccc12)c1cccc(C)c1	-29%
COc1cc(O)c(C(CC(=O)N2CCC[C@@H](C)C2)c2ccc3c(c2)OCO3)c(OC)c1 (stereo partly specified)	1%[39.2 µM]
CCN(C1CCOCC1)C1CNC1	-9%
CC(NC(=O)c1ccccc1N)C(=O)O (stereo unspecified)	-13%
COC(=O)[C@@H]1CN(C(=O)Nc2ccccc2)CCN1C(C)=O	2%[39.2 µM]
CC/C=C(\C(=O)N[C@@H]1C(=O)N2C(C(=O)OCOC(=O)C(C)(C)C)=C(COC(N)=O)CS[C@H]12)c1csc(N)n1	?
CC1=C(c2ccc(C)cc2)S(=O)(=O)N(Cc2ccc(C(=O)NCc3ccccc3)cc2)C1=O	-10%
CC(C)S(=O)(=O)NC[C@H](C)c1ccc(-c2ccc(CCNS(C)(=O)=O)cc2)cc1	-6%
CN1C(C(=O)Nc2ccc(F)cc2F)=CC(c2cccs2)=NS1(=O)=O	-17%
CCCc1cc(F)c(S(=O)(=O)N2CCN(S(=O)(=O)c3ccc4c(c3)OCCO4)CC2)cc1F	-14%
CCC(CC)C(=O)NCc1cccnc1Oc1cccc(C(F)(F)F)c1	4%
COc1ccc(C)cc1NC(=O)CSc1nc(=O)n(Cc2ccco2)c2c1CCC2	?
O=C(NCc1ccc(Cl)cc1)c1ccc2nnc(-c3cc[nH]c3)n2c1	3%
CCn1cc(-c2cccc(C(F)(F)F)c2)c2sc(C(N)=NC3CCS(=O)(=O)CC3)cc2c1=O	37%
COc1ccc(N2CCN(C(=O)c3c4c(nc5ccccc35)C(=O)N(C3CCCCC3)C4)CC2)cc1	-14%
O=C(NCc1cccnc1)c1nn(-c2ccc(Cl)cc2)nc1CO	-15%
COCCNc1ncnc2c1CCN(C(=O)c1cscn1)CC2	-6%

Screening results deposited in PubChem by National Center for Advancing Translational Sciences (NCATS).
